VACV Venus inh: vaccinia inhibition (Venus reporter); Vaccinia virus Venus reporter expression, fluorescence; hit rate 0.46% among 330,000; Potency, µM (top dose mostly 36.5 µM), without a hit: top-dose activity change, negative = inhibition, hits mostly inhibitors; active means well fitted inhibition curve with a large enough effect; inconclusive means small, poorly fitted or top-dose-only effect; inactive means no such curve, though single readings can be large or run the other way; tested in A549 cells; further: nearly all actives have a fitted effect of over 30% in size; inactives centre near -10
VACV mCherry inh: inhibitors of vaccinia virus infection (mCherry reporter signal) | Vaccinia virus mCherry reporter infection, fluorescence; about a quarter of the inactives have no number | Potency, µM (doses to about 36.5 µM), for inactives: at the highest dose activity change, negative = inhibition, actives largely listed as inhibitors | hit rate 0.63% among 310,000 | AID 720579; active = well fitted inhibition curve with a large enough effect; inconclusive = small, poorly fitted or top-dose-only effect; inactive = no such curve, though single readings can be large or run the other way; tested in A549 cells; further: nearly all actives have a fitted effect of over 35% in size; inactives centre near -10
Starred values were filed as active, the others as inactive; i = inactive; ? = inconclusive; / = no result given; & = joins results of further samples; [ ] = dose if it differs, or a comment. On the % scale 0 is the no-effect control and ±100 the full control effect; potency means the concentration at half of the fitted maximal effect.

1	COc1cccc(-c2nn(-c3ccc(C)cc3)cc2C(=O)NCC(c2cccs2)N2CCOCC2)c1 (configuration not stated)
2	O=S(=O)(c1ccc(Br)cc1)N1CCOCC1
3	CC[C@]1(O)CC(O[C@@H]2CC(N(C)C)C(O)C(C)O2)c2c(cc3c(c2O)C(=O)c2c(O)ccc(O)c2C3=O)C1C(=O)OC (some centres not stated)
4	COc1ccc2[nH]cc(C(=O)CN3CCN(C(=O)c4ccco4)CC3)c2c1
5	O=C(NCCCN1CCOCC1)c1ccc2c(=O)n(Cc3cccc(Br)c3)c(=S)[nH]c2c1
6	COc1cc(/C=C/C(=O)OCC(=O)NCCCc2ccccc2)ccc1O
7	CCN(CC)C(=O)C1=C(C)N(Cc2ccccc2)C(=O)C(CC(=O)NC2CCCCC2)C1 (configuration not stated)
8	CCOc1ccc(NC(=S)N2CCC(NC(=O)c3ccccc3)CC2)cc1
screen / no. | 1 | 2 | 3 | 4 | 5 | 6 | 7 | 8
VACV mCherry inh | -27% | 0% | 1% | / | ? | -19% | -16% | 13%
VACV Venus inh | -24% | -13% | -2% | -7% | -2% | -1% | -11% | -14%

9	S=C(NCc1ccco1)NCC(c1ccco1)N1CCCCC1 (configuration not stated)
10	CN(Cc1cnccn1)C(=O)C1CCC(=O)N(CCc2ccc(Cl)cc2)C1 (configuration not stated)
11	COc1ccc(NC(=O)CCNS(=O)(=O)c2ccc(Cl)c([N+](=O)[O-])c2)cc1S(N)(=O)=O
12	CCS(=O)(=O)c1nc2ccccc2n1CC(=O)N1CCCCC1
13	CCOC(=O)C1(CCOc2ccccc2)CCN(C(=O)c2ccc(-n3cccn3)cc2)CC1
14	COc1cc(OC)cc(C(=O)OCCCOC(=O)c2cc(OC)cc(OC)c2)c1
15	O=C(Nc1cccc(Cl)c1)c1ccc(NCCCN2CCOCC2)c([N+](=O)[O-])c1
16	COc1ccc(/C=N/Nc2nccnc2Cl)cc1
screen / no. | 9 | 10 | 11 | 12 | 13 | 14 | 15 | 16
VACV mCherry inh | -11% | -6% | -14% | / | ? | -15% | -15%[1.46 µM] | -13%
VACV Venus inh | -18% | -20% | -6% | -30% | -21% | -5% | ? | -7%

17	COC(=O)c1c(NC(=S)NNS(=O)(=O)c2ccc(OC)cc2OC)sc2c1CCCCCC2
18	CCC(=O)NC(=S)Nc1ccc(NC(=O)c2ccco2)c(OC)c1
19	COc1ccccc1N(C)S(=O)(=O)c1ccc(C(=O)OCC(=O)NCCC2=CCCCC2)cc1
20	CCC(C)(C)n1nnnc1C(C(C)C)N(Cc1cccnc1)Cc1ccco1 (configuration not stated)
21	COc1ccc2c(c1)CC(C(=O)NCCCN1CCN(c3ccccc3F)CC1)CO2 (configuration not stated)
22	C(=C\c1ccccc1)/CN1CCN(Cc2ccc3c(c2)OCO3)CC1
23	COc1ccc(-n2cc(CN(C)Cc3n[nH]c(=O)[nH]3)c(-c3cccc(F)c3)n2)cc1
24	CC(=O)N1CCN(C(=S)NC(=O)c2c(-c3ccccc3Cl)noc2C)CC1
screen / no. | 17 | 18 | 19 | 20 | 21 | 22 | 23 | 24
VACV mCherry inh | i | -25% | -10% | -26% | -13% | -5% | -4% | 0%
VACV Venus inh | -8% | -28% | 7% | 4% | -16% | -11% | -16% | 2%

Exported with bars between the fields: part of the list above
nr | molecule | VACV mCherry inh | VACV Venus inh
18 | CCC(=O)NC(=S)Nc1ccc(NC(=O)c2ccco2)c(OC)c1 | -25% | -28%
19 | COc1ccccc1N(C)S(=O)(=O)c1ccc(C(=O)OCC(=O)NCCC2=CCCCC2)cc1 | -10% | 7%
20 | CCC(C)(C)n1nnnc1C(C(C)C)N(Cc1cccnc1)Cc1ccco1 (configuration not stated) | -26% | 4%
21 | COc1ccc2c(c1)CC(C(=O)NCCCN1CCN(c3ccccc3F)CC1)CO2 (configuration not stated) | -13% | -16%
22 | C(=C\c1ccccc1)/CN1CCN(Cc2ccc3c(c2)OCO3)CC1 | -5% | -11%
23 | COc1ccc(-n2cc(CN(C)Cc3n[nH]c(=O)[nH]3)c(-c3cccc(F)c3)n2)cc1 | -4% | -16%
24 | CC(=O)N1CCN(C(=S)NC(=O)c2c(-c3ccccc3Cl)noc2C)CC1 | 0% | 2%

More records:
25	Cc1ccc(N2C(=O)/C(=C/c3ccco3)SC2=S)cc1
26	Cc1ccc(NC(=O)c2nnn(Cc3cccc(C(F)(F)F)c3)c2N)c(C)c1
27	CC(Sc1nc(C(F)(F)F)nc2ccccc12)C(=O)NC1CCCC1 (configuration not stated)
28	Cc1nn(C(C)C(=O)NCCCc2ccccc2)c(=O)c2nn(-c3ccccc3)c(C)c12 (configuration not stated)
29	O=C(NCCNC1CCC(c2ccccc2)CC1)c1ccc(F)cc1 (configuration not stated)
30	COc1cc(NC(=S)N2CCC(C(O)(c3ccccc3)c3ccccc3)CC2)cc(OC)c1
31	CCOc1ccccc1N(CC(=O)NC1CCCCC1)C(=O)CNC(=O)c1ccco1
32	COC(=O)c1cc2sc(Cl)cc2n1CC(=O)NCC1CCCO1 (configuration not stated)
screen / no. | 25 | 26 | 27 | 28 | 29 | 30 | 31 | 32
VACV mCherry inh | -13% | -15% | -18% | -12% | 0% | ? | -11% | -23%
VACV Venus inh | 8% | -21% | -2% | -19% | -14% | ? | -5% | -21%

33	CCN(C(=O)c1cccs1)C1CCS(=O)(=O)C1 (configuration not stated)
34	NC(Cc1ccccc1)C(=O)N1CCCCC1 (configuration not stated)
35	COC(=O)CCCCC1SCC2NC(=O)NC21O (configuration not stated)
36	CC(C)(C)OC(=O)N[C@H](C(=O)OC(C)(C)C)c1ccc(C(F)(F)F)cc1
37	COc1cc(/C=C2/NC(=O)NC2=O)cc(Br)c1OCc1ccc(C(=O)O)cc1
38	CCOc1ccccc1NC(=O)CN1C(=O)COc2ccc(S(=O)(=O)N3CCOCC3)cc21
39	NS(=O)(=O)c1ccc(NC(=O)c2cccc(N3C(=O)c4ccccc4C3=O)c2)cc1
40	CC(C)OC(=O)N(C)C[C@H]1OCc2cnnn2CCCC(=O)N([C@H](C)CO)C[C@H]1C
screen / no. | 33 | 34 | 35 | 36 | 37 | 38 | 39 | 40
VACV mCherry inh | i | i | -13% | i | 7% | -15%&-2% | -1% | -15%
VACV Venus inh | 0% | -11% | -2% | -17% | 0% | -29%&-8% | 0% | -11%

41	CCCCNC(=S)Nc1cc([N+](=O)[O-])ccc1C
42	COc1ccc(NC(=O)C2CCN(c3nc(C)cc(C)n3)CC2)cc1
43	COc1ccc(C(=O)NC2CC2)cc1OC1CCN(C/C=C/c2ccccc2)CC1
44	COc1ccc(C(O)c2ncc(-c3cccc4ccccc34)[nH]2)cc1F (configuration not stated)
45	CC(NS(=O)(=O)c1ccc(CCC(=O)NCC2CCCO2)cc1)c1ccccc1 (configuration not stated)
46	CCOC(=O)c1c(CN2CCCCC2)n(C)c2cc(Br)c(OC)cc12
47	Nc1nc(SCC(=O)NC2CCCCCC2)[nH]c(=O)c1-c1ccccc1
48	O=C(COC(=O)/C=C/c1cccc(F)c1)Nc1ccccc1-c1ccccc1
screen / no. | 41 | 42 | 43 | 44 | 45 | 46 | 47 | 48
VACV mCherry inh | -5% | -26% | -4% | -23% | / | -10% | -12% | -15%
VACV Venus inh | -12% | -10% | -16% | -22% | -21% | -12% | -12% | -2%

49	COc1ccc(-c2cc(C(=O)N3CCN(c4ccccc4OC)CC3)no2)cc1
50	Cc1ccc(C(NC(=O)NCCCN2CCOCC2)=C(Cl)Cl)cc1F
51	CS(=O)(=O)N1N=C(c2ccccc2)CC1c1ccc2c(c1)OCO2 (configuration not stated)
52	CCc1ccc2c(c1)C(=O)C(=O)N2CC(=O)Nc1ccc(NC(=O)c2ccccn2)cc1
53	COc1ccc(-c2cc(C(=O)N3CCN(c4ccccc4F)CC3)c3ccccc3n2)c(OC)c1
54	COc1ccc([C@H]2CC(=O)C=C(c3ccc(SC)cc3)C2)cc1
55	CC(=O)N1CCN(Cc2cc(=O)oc3cc(C)ccc23)CC1
56	COc1cc(OC)cc(-c2nc3nc(C)c(CCC(=O)Nc4cc(F)ccc4F)c(C)n3n2)c1
screen / no. | 49 | 50 | 51 | 52 | 53 | 54 | 55 | 56
VACV mCherry inh | ? | -29% | -16% | -19% | -24% | -8% | 9% | -1%
VACV Venus inh | -10% | -21% | 0% | -12% | ? | -27% | 9% | -15%

57	CC(C)=NNc1nc(-c2ccc([N+](=O)[O-])cc2)cs1
58	O=C(CCNS(=O)(=O)c1ccc(Br)s1)Nc1ccc(Cl)cc1
59	CCOc1ccccc1C(=O)N1CCN(C(c2ccccc2)c2ccccc2)CC1
60	Cc1cn(C2OC(COC(=O)c3ccccc3)C(OC(=O)c3ccccc3)C2OC(=O)c2ccccc2)c(=O)[nH]c1=O (configuration not stated)
61	CCCCC(NC(=O)Cc1c(C)c2cc3c4c(oc3cc2oc1=O)CCCC4)C(=O)O (configuration not stated)
62	O=C(N/N=C/c1cc2ccccc2nc1Cl)c1ccncc1
63	Cc1cc(=O)oc2cc(Oc3ncccc3[N+](=O)[O-])ccc12
64	O=C1Nc2ccccc2N(O)N1c1ccc(S(=O)(=O)N2CCCCCC2)cc1
screen / no. | 57 | 58 | 59 | 60 | 61 | 62 | 63 | 64
VACV mCherry inh | -14% | -22% | -6% | ? | -8% | 4% | -13% | -15%
VACV Venus inh | -22% | 0% | -4% | -22% | -7% | -3% | -1% | -12%

65	O=C(CCc1nc2ccccc2c(=O)[nH]1)NCc1ccccn1
66	CN(C)C(=O)C(NC(=O)c1ccccc1)=C(Cl)Cl
67	COCCN=C1N[C@@H](c2ccccc2)C(C(=O)OC)=C(C)N1Cc1ccccc1
68	CNS(=O)(=O)c1cccc(C(=O)OCC(=O)N2CCCC2)c1
69	CCc1nc2cc(C)nn2c2nc3ccccc3n12
70	Cc1ccc(NC(=O)C2C3CCCC2C3c2ccccc2)cc1 (configuration not stated)
71	Cc1ccc2nc(CNC(=O)c3cc(NC(=O)c4ccccc4)cc4ncn(C5CCCC5)c34)cn2c1
72	CCCn1c(=S)[nH]c2ccccc2c1=O
screen / no. | 65 | 66 | 67 | 68 | 69 | 70 | 71 | 72
VACV mCherry inh | i | -1% | -26% | i | -5% | -2% | i | i
VACV Venus inh | -10% | -7% | -8% | -8% | 2% | -3% | -15% | -15%

73	CCOC(=O)N1CCN(C(=O)CN(C)S(=O)(=O)c2ccc(Cl)cc2)CC1
74	CC(C)Cn1c(S(=O)(=O)O)nc2ccccc21
75	O=C(/C=C/c1ccco1)NC(=S)N1CCCCC1
76	O=C(Nc1cccc(Cl)c1)c1ccc(F)c(S(=O)(=O)NCc2ccc3c(c2)OCO3)c1
77	CNC(=O)c1ccc(-c2ccc(Cl)c(Cl)c2)s1
78	O=C(Nc1nc2ccc(S(=O)(=O)N3CCCC3)cc2s1)C1CCCCC1
79	COc1ccc2nc3ccccc3nc2c1N
80	Cc1ccc(S(=O)(=O)Nc2ccc(N3CCCCC3)cc2)cc1
screen / no. | 73 | 74 | 75 | 76 | 77 | 78 | 79 | 80
VACV mCherry inh | 6% | i | -11% | -25% | i | ? | -9%[7.34 µM] | ?
VACV Venus inh | -2% | -6% | 12% | -16% | -12% | ? | -1%[7.34 µM] | -14%

Copied from above, entries 73–76
73	CCOC(=O)N1CCN(C(=O)CN(C)S(=O)(=O)c2ccc(Cl)cc2)CC1
74	CC(C)Cn1c(S(=O)(=O)O)nc2ccccc21
75	O=C(/C=C/c1ccco1)NC(=S)N1CCCCC1
76	O=C(Nc1cccc(Cl)c1)c1ccc(F)c(S(=O)(=O)NCc2ccc3c(c2)OCO3)c1
screen / no. | 73 | 74 | 75 | 76
VACV mCherry inh | 6% | i | -11% | -25%
VACV Venus inh | -2% | -6% | 12% | -16%

Next section.
81	COc1ccc2c(Cl)c(C(=O)NN)sc2c1
82	O=C(Oc1ccc(C(=S)N2CCC(O)CC2)cc1)c1ccc(Cl)cc1
83	COc1ccccc1NC(=O)N1CCOc2ccccc21
84	CO[C@H]1O[C@H](CBr)[C@@H](OC(=O)c2ccccc2)[C@H](O)[C@H]1O
85	CCOc1ccc(C(=O)Nc2cc(-c3nc4ccccc4s3)ccc2OC)cc1
86	CC(=O)N1CCn2c3c(c(=O)c4cc(C)ccc42)CCC31 (configuration not stated)
87	CC(NC(=O)c1ccc2c(=O)n3c(nc2c1)CCC3)c1ccc(S(N)(=O)=O)cc1 (configuration not stated)
88	CCCCNC(=O)[C@H]1C[C@H]1[C@@H](O)[C@H](CO)NC(=O)[C@H](CC(C)C)NC(=O)OC(C)(C)C
89	CC(=O)Nc1nc2n(n1)C(c1ccccc1)C=C(c1ccccc1)N2 (configuration not stated)
90	COc1cc(NC(=O)c2ccc3c(c2)OCCO3)ccc1NC(=O)c1ccccc1Cl
screen / no. | 81 | 82 | 83 | 84 | 85 | 86 | 87 | 88 | 89 | 90
VACV mCherry inh | -14% | -2% | -13% | -28% | -27% | -14% | -14% | i | -15% | i
VACV Venus inh | -13% | -13% | -9% | -17% | -21% | -2% | -3% | -7% | -15% | -18%

High-throughput results deposited in PubChem BioAssay by National Center for Advancing Translational Sciences (NCATS).
